Screens as filed in PubChem.
CapD inh: Bacillus anthracis CapD inhibitors, primary screen, biochemical, fluorescence intensity; CapD gamma-glutamyltranspeptidase (Bacillus anthracis Ames Ancestor); purified CapD enzyme, fluorescence intensity read-out; active compounds read low; some hits fall short of the stated cut; z-score (test concentration not listed); 0.23% of 140,000 active;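 active means z-score under -4 in either of two replicates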;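 further: stock transfer was 100 nL into about 40 µL; score is relative to mean and spread of the plate; one replicate is shown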
AID504770: growth inhibition of E. coli YBA685, primary screen, V. cholerae RctB inhibitors. E. coli YBA685 rctB-dependent plasmid, OD600 growth, 3 h; active compounds read low. z-score (test concentration not listed). 0.27% of 130,000 active. AID 504770, 2011;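 active means z-score under -2 on both plates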;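 further: wells of about 30 µL received 100 nL stock; score is relative to mean and SD of the test wells; the first replicate is given; strong numbers were not always called active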
The depositor's hits bear a star; i = inactive; · = no result given; & = joins results of further samples.

canonical_smiles	CapD inh	AID504770
CCCS(=O)(=O)N1N=C(c2ccc(C)cc2)CC1c1ccco1 (stereo not given)	1.3	0.4
CCC(Sc1nc2ccccc2o1)C(=O)Nc1ccc(Cl)cn1 (stereo not given)	0.23	·
Cc1csc(Cc2nc3ccccc3n2C)n1	·	-1.4
Cc1ccc(/C=C2/SC(=O)N(CCC(=O)O)C2=O)cc1	-1.6	0
CCOc1ccc(CN(C)CCc2ccccn2)cc1	-0.68	-0.65
CC(=O)n1c(SCC(=O)NC2=NN=C(c3ccc(C)cc3)CS2)nc2ccccc21	0.69	0.8
Cc1ccc(/C=N/n2cnnc2)cc1	0.055	-2
O=C1CC(=O)CC(c2ccc(F)cc2)C1	0.15	-0.3
O=[N+]1C2=C(CCCC2)N([O-])C12CCCC2	·	-0.45
CCOC(=O)CNc1nc(Cc2ccccc2)nc2sc3c(c12)CCCC3	-0.34	·
Cc1cc(C)c2nc(N3CCC(C(=O)NCCCN4CCCCC4)CC3)sc2c1	-0.17	0.2
C=CCN(CC(=O)N1CCCc2ccccc21)S(=O)(=O)c1cccs1	·	-0.6
CC1=C(C)CC2(SC1)C(=O)N(c1ccccc1)N=C2N (stereo not given)	·	-1
CCN(c1ccccc1)S(=O)(=O)c1ccc2c(c1)OCCN2C(C)=O	0.33	0.6
C=C1N(CC)C(=O)OC12CCCCC2	-0.28	·
O=C(CSc1ncccc1C(F)(F)F)c1cccc(C(F)(F)F)c1	-1.2	1.2
COC(=O)C(Cc1ccc(O)cc1)NC(=O)c1ccccc1OC (stereo not given)	-0.59	0.65
NC(=O)C(F)(F)C(F)(F)C(F)(F)C(F)F	·	0.7
COc1ccc(/C=c2\sc3nnc(-c4ccc(C)cc4)n3c2=O)cc1	-0.3	·
CCOC(=O)c1cc(C(=O)NCc2ccccc2)c(=O)[nH]c1C	0.48	1.1
CN(C)CC1CCCCC1=O (stereo not given)	0.71	-0.6
CCOC(=O)c1sc(NC(=O)CSc2nnc(C)s2)c(C(=O)OCC)c1C	-0.23	·
CC(C#N)OC(=O)c1ccccc1Sc1ccccc1C#N (stereo not given)	·	-0.15
COC(=O)C1=CN(Cc2ccc(OC)cc2)C=C(C(=O)OC)C1c1ccc(F)c(Br)c1	51	·
COc1cc(C2C(C#N)=C(N)Oc3n[nH]c(-c4cccc([N+](=O)[O-])c4)c32)ccc1OC(=O)c1cccs1 (stereo not given)	-0.67	·
Nn1c(SCc2ccccc2)nc2ccccc21	-0.2	-0.35
O=C1CC(c2ccc(S(=O)(=O)NC3CCCCC3)cc2)CN1 (stereo not given)	·	0.8
COc1ccc(CCN(C)Cc2ccncc2)cc1OC	0.12	-0.4
CC(C)c1ccc(S(=O)(=O)/N=C(\N)CSc2ccc(Cl)cc2)cc1	-0.035	·
CCOC(=O)C1CCN(C(c2cccnc2)c2nnnn2Cc2ccccc2)CC1 (stereo not given)	·	-0.8
Cc1nnc(NC(=O)Cn2c(=O)sc3ccccc32)s1	0.075	-0.05
O=c1[nH]c(-c2cccc(Cl)c2)nc2ccc(N3CCCC3)cc12	0.58	0.25
O=C(NCCO)c1ccccc1-c1ccccc1	-0.055	-0.3
O=C(/C=C/c1ccccc1)Nc1cc(C(=O)N2CCN(c3ccccc3)CC2)ccc1N1CC2CC(C1)c1cccc(=O)n1C2 (stereo not given)	-0.74	·
C(=NC1CC1)c1ccc(-c2ccccc2)cc1	0.33	-0.7
COC(=O)c1sc(N)c(C(=O)OC)c1COC(=O)c1ccc2c(c1)C(=O)N(Cc1ccco1)C2=O	·	0.35
O=C1Nc2ccccc2C(O)(C(=O)NCc2ccccc2)N1c1ccccc1 (stereo not given)	0.32	-0.15
Fc1ccccc1-c1cn2ccsc2n1	0.23	-1.1
CCOc1ccc(-n2c(C)cc(/C=N/N(C)C)c2C)cc1	·	0.1
COc1cc(-c2n[nH]c(=S)n2-c2ccccc2Cl)cc(OC)c1OC	0.12	·
COc1ccc(S(=O)(=O)NCCC(C)(C)C)cc1	-0.35	·
O=C(C1=COCCO1)N1c2ccccc2Sc2ccccc21	-0.61	-0.9
CC1CCCC(C)N1CC(O)Cn1c2ccccc2c2ccccc21 (stereo not given)	·	-1.1
COc1cccc(C(=O)Nc2ccc(-c3nc4ncccc4o3)cc2)c1	23	-0.95
CCOC(=O)C1=C(CNCc2ccccc2)NC(=O)NC1c1ccccc1 (stereo not given)	0.57	-0.2
Cc1nnsc1C(=O)Nc1cccnc1	-0.29	-0.65
C/C=C(\C)c1nc2c(Br)cc(Br)cc2c(=O)o1	-0.74	·
CCOC(=O)c1sc(NC(=O)c2cc3c(C)nn(Cc4ccccc4)c3s2)nc1C	·	-0.25
CCn1cc(CCCC(=O)NCc2cc(Br)ccc2OC)c2ccccc21	1.2	0.9
O=C(Oc1ccc2oc(-c3ccco3)cc(=O)c2c1)C1CCCCC1	5.1	0.85
Cc1ccc(NC(=O)c2sc(=S)n3c2[nH]c(=O)c2ccccc23)c(C)c1	-1.3	1
Cc1cc(C)nc(Sc2ccc(N)cc2)n1	-0.68	·
COc1ccc(CCNS(=O)(=O)c2ccc3[nH]c(=O)ccc3c2)cc1OC	-0.22	-0.1
CCOC(=O)Cc1n[nH]c(=S)n1C	·	-0.25
CC1(C)COCCN1C(=O)c1ccc(Cl)cc1	-0.35	·
Cc1ccc(CS(=O)(=O)CCC(=O)O)cc1	-0.23	0.15
CN(C)CC[n+]1ccc(C(=O)c2ccccc2)cc1	·	-0.2
CCOC(=O)c1c(C)n(C)c2c1cc(OC(=O)c1ccc(F)cc1)c1ccccc12	-0.16	·
CCOC(=O)N1CCC(NC(=O)c2ccc3nc(/C=C(\O)c4ccc(OC)cc4)c(=O)[nH]c3c2)CC1	0.51	-0.1
COc1ccccc1OCC(=O)NN	0.64	-0.5

Later entries.
canonical_smiles	CapD inh	AID504770
Clc1ccc(-c2nnnn2-c2ccc(Cl)cc2)cc1	0.3	·
O=C(O)C1Cc2[nH]cnc2C(c2ccccc2)N1 (stereo not given)	1.2&0.2	-0.35&-0.85
Cc1c(C)n(CC(O)CN2CCN(CC(O)Cn3c(C)c(C)c4ccccc43)CC2)c2ccccc12 (stereo not given)	·	-0.55
COc1ccc2ccccc2c1CN1CCN(C(=O)c2ccncc2)CC1	-0.38	0.95
CC(C(=O)Nc1ccc(Cl)cn1)N(C)Cc1c(F)cccc1Cl (stereo not given)	·	-1.6
O=C1CC(N2CCSC2=S)C(=O)N1c1cccc(Cl)c1Cl (stereo not given)	-0.52	0.75
CSc1nc(-c2ccccc2)cn1-c1cccc(Cl)c1	-0.22	1.6
N#Cc1c(N)nc(SCC(=O)Nc2ccccc2)c(C#N)c1-c1ccccc1	2.7	·
CCN(CC)C(=O)N1CCN(c2ccccc2)CC1	0.005	-0.85
O=C(CCc1ccccc1)Nc1ccccc1N1CCOCC1	·	1.6
COCc1c(CN)cnc(C)c1N	·	-0.8
O=C1CSCC(=O)N1c1cccc2ccccc12	-0.8	1.1
O=c1c2cc([N+](=O)[O-])cc3cc([N+](=O)[O-])cc(c32)c2nc3ccccc3n12	-0.035	·
CCOc1ccc(C2C3=C(CCCC3=O)NC3=C2C(=O)CCC3)cc1	-0.87	1
Cc1cc(F)c(F)c(C(=O)N2CCCCCC2)c1Cl	·	1.4
O=C(Cc1ccccc1)Nc1ccc(-c2cn3ccsc3n2)cc1	·	0.15
Cc1ccc2c(cnn2C(=O)CCCC(=O)NC2CCCC2)c1	0.39	-0.85
C=CCN(C(=O)CCc1c(C)nn(-c2ccccc2)c1C)c1nc2c(s1)CCCC2	·	1.6
Cc1cc(OC(=O)NC(=O)C(F)(F)F)c(C(C)C)cc1I	0.6	1.1
CCOc1ccc(-n2c(=S)sc3c2nc(SCC2OCCO2)n2c4ccccc4nc32)cc1	0.03	·
O=C(NC(=S)Nc1ccc(Oc2cc(C(F)(F)F)cc(C(F)(F)F)c2)cc1)c1ccccc1	-0.13	·
COC(=O)c1sc(NC(=O)c2csc3c2CCCC3)c(C#N)c1C	1.6	-0.15
O=C(NCc1ccccc1CN1CCCC1)c1csc(-c2cccs2)n1	·	-0.9
Cc1noc(C)c1C(=O)N=c1sc2ccccc2n1C	·	-1.2
CC1CC=C2C(C#N)=C(N)C(C#N)(C#N)C3(C(=O)Nc4ccccc43)C2C1 (stereo not given)	-0.33	·
O=C(COc1nc2ccccc2s1)N1N=CCC1c1ccccc1 (stereo not given)	·	-1.2
CCCCn1c(C)cc(/C=C(\C#N)C(=O)O)c1C	·	-0.85
CCc1nn(C(C)C(=O)NCCc2ccc(OC)c(OC)c2)c(=O)c2cc3occc3n12 (stereo not given)	-0.17	-1.2
Cc1cc(-c2ccc(C(C)C)c(S(=O)(=O)NC(C)(C)C)c2)on1	-0.21	-0.95
CCCC1C2C(=O)N(c3ccccc3)C(=O)C2ON1c1ccc(Cl)c(Cl)c1 (stereo not given)	-0.075	-1
Cc1ccc(OCC(O)CN2CCC(C)CC2)c(C)c1 (stereo not given)	-0.57	-0.15
CCC1Oc2ccc(C)cc2N(CC(=O)NC(C)C)C1=O (stereo not given)	·	2.1
O=C(Nc1ccc(Cc2ccc(NC(=O)C3CC3)cc2)cc1)C1CC1	-0.19	0.15
CCOC(=O)c1c(NC(=O)C(C)Sc2nnc(CNC(=O)c3ccco3)n2-c2cccc(Cl)c2)sc2c1CCC2 (stereo not given)	-0.35	·
N#Cc1ccc(Cl)cc1NC(=O)COC(=O)c1cc(-c2ccco2)nc2ccccc12	·	1.9
CC(=O)Oc1ccc2c(=O)c(-c3nc4ccccc4s3)c(C)oc2c1	i	0.5
NC(=O)C1CCN(C(=O)CN2C(=O)/C(=C/c3ccccc3F)Sc3ccccc32)CC1	34	-0.3
CC(C)(C)c1ccc(CSc2nc(N)cc(=O)[nH]2)cc1	-0.21	·
CC1CCN(C(=O)COc2cccc3c2CCN(Cc2ccccc2)C3=O)CC1	-0.005	-0.5
CN(C)S(=O)(=O)c1ccc2c3c(cccc13)C(=O)N2C(=O)c1cccs1	·	0.9
COc1ccc(CCNC(=O)c2ccccc2)cc1OC	0.41	·
c1ccc(COC(CNC2CCCCC2)CNC2CCCCC2)cc1	-0.5	-0.65
O=C1c2c(sc3c2CCCC3)NC2(C(=O)N(Cc3ccccc3F)c3ccccc32)N1CCc1ccccc1 (stereo not given)	-1.5	·
CC1CCCC(C)N1Cc1ccc(N)cc1 (stereo not given)	0.92	1.1
O=C(Cn1cnc2ccccc2c1=O)NCC(=O)NC1CCCCC1	-0.62	0.25
COC(=O)c1cccc(-c2ccc(/C=C3\Sc4ccccc4C3=O)o2)c1	-0.53	·
O=C(CSc1nnc(-c2ccc(C(F)(F)F)cc2)o1)c1ccc(Cl)cc1	-0.69	·
O=Cc1ccc(/C=C2\SC(=S)N(CC(=O)O)C2=O)cc1	-2.8	·
Cc1ccccc1CC(=O)Nc1ccccc1	1.6	0.95
O=c1nc(Oc2cccc(C(F)(F)F)c2)cc(Oc2cccc(C(F)(F)F)c2)[nH]1	1.9	-0.2
O=C(O)c1c[nH]c2ccc(S(=O)(=O)N3CCc4ccccc4C3)cc2c1=O	2.1	-0.35
O=C(Nc1nc2ccccc2s1)c1ccc(=O)[nH]c1	·	0.45
CC1(C)CC2(CCO1)OC(=O)CC2C(=O)Nc1ccc(Cl)c(Cl)c1 (stereo not given)	-0.12	-0.6
O=C1/C(=C/c2ccccc2)CCC1C1CCCC1 (stereo not given)	0.59	0.5
CN(C)c1ccc2c3c(cccc13)C(=O)N(c1nc3ccccc3n1C)C2=O	-0.86	1.6
Cc1cc2ncn(CCc3noc(-c4ccccc4)n3)c2cc1C	-0.085	-0.85
CS(=O)(=O)N1CCN(c2ccc(C#N)cn2)CC1	0.3	-0.8
C1=C(c2ccccc2)CCN(Cn2nnc(-c3ccccc3)n2)C1	·	-0.7
CCOc1ccc(N2CC(c3nc4ccccc4n3C(C)C)CC2=O)cc1 (stereo not given)	0.21	0.85
O=C(Nc1ccccc1Sc1ncc(-c2ccc(Cl)cc2)cn1)c1cccc(C(F)(F)F)c1	-0.69	·

Rewritten with each value named: part of the list above
> O=C(O)C1Cc2[nH]cnc2C(c2ccccc2)N1 (stereo not given)
  CapD inh: 1.2&0.2
  AID504770: -0.35&-0.85
> Cc1c(C)n(CC(O)CN2CCN(CC(O)Cn3c(C)c(C)c4ccccc43)CC2)c2ccccc12 (stereo not given)
  CapD inh: ·
  AID504770: -0.55
> COc1ccc2ccccc2c1CN1CCN(C(=O)c2ccncc2)CC1
  CapD inh: -0.38
  AID504770: 0.95
> CC(C(=O)Nc1ccc(Cl)cn1)N(C)Cc1c(F)cccc1Cl (stereo not given)
  CapD inh: ·
  AID504770: -1.6

Remaining list, next part:
canonical_smiles	CapD inh	AID504770
Cc1nc2ccc(C(=O)OCCC(F)(F)F)cc2[nH]1	0.2	0
O=C1/C(=C/c2ccc([N+](=O)[O-])cc2)C=C(c2ccccc2)N1c1ccc(Br)cc1	-0.33	·
Cc1ccccc1C1Nc2ccccc2S(=O)(=O)N1 (stereo not given)	1.2	-0.95
Cn1nccc1NC(=O)/C=C/C(=O)O	0.25	-0.6
O=C(c1ccco1)N(Cc1ccccc1)Cc1cn(-c2ccccc2)nc1-c1ccc(F)cc1	-0.16	-0.05
